Bioassay records from PubChem BioAssay.
ID4 binder = binds human ID4 protein on microarray; small molecule microarray, Flag-ID4 binding, fluorescence F/B; P47928; calls only; 1.2% of 31,000 active;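 active = spot signal over background at p below 0.07 in all four prints; compounds were printed on slides so no solution concentration is given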;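 also: a binder raises fluorescence above local background on the spot; about 2 pmol printed per array spot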
Target sequence (P47928 whole entry, looked up): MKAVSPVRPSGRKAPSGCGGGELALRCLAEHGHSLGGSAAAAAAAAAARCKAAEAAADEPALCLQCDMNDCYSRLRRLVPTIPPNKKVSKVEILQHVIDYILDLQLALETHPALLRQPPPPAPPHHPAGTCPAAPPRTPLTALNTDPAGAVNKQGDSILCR
Myc binder = binders of human c-Myc; small molecule microarray, His-c-Myc binding, anti-His fluorescence; 1.5% of 17,000 active; calls only; AID 624141;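 active = spot fluorescence over background with P-value below 7% in all four replicate spots, showing protein binding; compounds were printed on slides so no solution concentration is given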;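 also: score is binary with 100 for all four spots passing and 0 otherwise; about 2 pmol printed per array spot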
Target sequence (P01106 whole entry, looked up): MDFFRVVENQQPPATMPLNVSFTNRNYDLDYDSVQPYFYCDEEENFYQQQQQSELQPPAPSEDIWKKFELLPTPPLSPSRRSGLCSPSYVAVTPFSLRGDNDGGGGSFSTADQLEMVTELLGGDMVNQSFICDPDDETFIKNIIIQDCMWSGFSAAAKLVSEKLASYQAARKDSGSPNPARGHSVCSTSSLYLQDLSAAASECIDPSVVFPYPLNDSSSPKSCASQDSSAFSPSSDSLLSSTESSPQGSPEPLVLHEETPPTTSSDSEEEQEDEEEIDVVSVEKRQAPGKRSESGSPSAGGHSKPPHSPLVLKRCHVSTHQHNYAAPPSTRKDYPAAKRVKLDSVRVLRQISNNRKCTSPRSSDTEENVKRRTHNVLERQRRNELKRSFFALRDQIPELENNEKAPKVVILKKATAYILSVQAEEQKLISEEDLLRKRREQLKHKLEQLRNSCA
STAT3 SMM = binders of human STAT3. P40763. Small molecule microarray, His-STAT3 binding, anti-His fluorescence. calls only. 0.2% of 17,000 active;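 active = compounds whose four printed spots each show fluorescence over background unusually high for their array block, chance value under 7%; compounds were printed on slides so no solution concentration is given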;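 also: about 2 pmol printed per array spot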
p53 mut binder = mutant p53 (human) binding | calls only | small molecule microarray binding, anti-GST fluorescence | 0.4% of 17,000 active;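 active = compounds whose four printed spots each glow above background more than chance allows, each with a p-value under 7%; compounds were printed on slides so no solution concentration is given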;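 also: about 2 pmol printed per array spot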
Calls only; i = inactive; · = no result given; + = active, no number. Only part of the results is shown (hit frequency here may not be typical).

| mol | ID4 binder | Myc binder | STAT3 SMM | p53 mut binder |
| --- | --- | --- | --- | --- |
| C[C@@H]1CN([C@H](C)CO)C(=O)CCCn2cc(nn2)CO[C@@H]1CN(C)Cc1ccncc1 | i | i | i | i |
| CO[C@H]1CC(O[C@@H]2/C(C)=C/C[C@@H]3C[C@@H](C[C@]4(CC[C@H](C)[C@@H](C5CCCCC5)O4)O3)OC(=O)[C@@H]3C=C(C)/C(=N/O)[C@H]4OC/C(=C\C=C\[C@@H]2C)[C@]43O)O[C@@H](C)C1O (stereo partly specified) | · | i | i | i |
| COc1ccc(S(=O)(=O)N(C)C[C@H]2Oc3c(NS(=O)(=O)c4ccccc4)cccc3C(=O)N([C@@H](C)CO)C[C@@H]2C)cc1 | i | i | i | i |
| O=C[C@@H]1CCCN1C(=O)[C@@H]1CCCN1C(=O)OCc1ccccc1 | i | i | i | i |
| O=C(CSc1nc(O)cc(=O)[nH]1)Nc1ccc(Cl)cc1 | i | i | i | i |
| COc1ccc(S(=O)(=O)Nc2cccc3c2O[C@H](CN(C)Cc2ccc(C(F)(F)F)cc2)[C@@H](C)CN([C@H](C)CO)C3=O)cc1 | i | i | i | i |
| COc1ccc(CN(C)C[C@@H]2Oc3ccc(NS(=O)(=O)c4ccc(OC)cc4)cc3C(=O)N([C@H](C)CO)C[C@@H]2C)cc1 | i | i | i | i |
| C[C@@H]1CN([C@@H](C)CO)C(=O)c2cccc(NS(=O)(=O)c3ccc(F)cc3)c2O[C@@H]1CN(C)C(=O)NC1CCCCC1 | i | i | i | i |
| CC(C)NC(=O)Nc1ccc2c(c1)C(=O)N([C@@H](C)CO)C[C@@H](C)[C@@H](CN(C)C)OCCCC[C@H](C)O2 | i | i | i | i |
| CCCCCCCCCCC(C)(C)C(=O)Nc1c(OC)cc(OC)cc1OC | i | i | i | i |
| CC(C)NC(=O)N(C)C[C@@H]1OCCCC[C@H](C)Oc2ccc(NC(=O)CCC(F)(F)F)cc2C(=O)N([C@@H](C)CO)C[C@H]1C | i | i | i | i |
| COc1ccc(CN(C)C[C@H]2Oc3c(NS(=O)(=O)c4ccc(Cl)cc4)cccc3C(=O)N([C@@H](C)CO)C[C@H]2C)cc1 | i | i | i | i |
| O=C(CSc1nc2cc(Cl)ccc2s1)Nc1ccc(I)cc1 | i | i | i | i |
| C[C@H]1CCCCO[C@@H](CN(C)Cc2ccc(C(=O)O)cc2)[C@@H](C)CN([C@@H](C)CO)C(=O)c2cc(NC(=O)Nc3ccc(C(F)(F)F)cc3)ccc2O1 | · | i | i | i |
| C[C@@H]1CN([C@H](C)CO)C(=O)c2cc(NC(=O)Nc3ccc4c(c3)OCO4)ccc2O[C@H]1CN(C)C(=O)Nc1ccc2c(c1)OCO2 | i | i | i | i |
| CSc1cccc(NC(=O)CN(C)S(=O)(=O)c2ccc3ccccc3c2)c1 | i | i | i | i |
| CC(C)NC(=O)Nc1ccc2c(c1)C(=O)N([C@@H](C)CO)C[C@H](C)[C@H](CN(C)S(=O)(=O)c1ccc(Cl)cc1)OCCCC[C@@H](C)O2 | · | i | i | i |
| CCC(=O)c1ccccc1OCCSc1nc(C)cc(=O)[nH]1 | i | i | i | i |
| Cc1ccc(-c2nn3c(C)nnc3c3ccccc23)cc1S(=O)(=O)NCCN1CCOCC1 | i | i | i | i |
| CC(C)NC(=O)N(C)C[C@H]1Oc2c(NS(=O)(=O)c3ccccc3)cccc2C(=O)N([C@H](C)CO)C[C@@H]1C | i | i | i | i |
| Cc1noc(C)c1S(=O)(=O)Nc1ccc2c(c1)CC(=O)N([C@@H](C)CO)C[C@@H](C)[C@@H](CN(C)Cc1ccc(-c3ccccc3)cc1)O2 | i | i | i | i |
| Nc1ncnc2c1c1nc3ccccc3nc1n2Cc1ccccc1 | i | i | i | i |
| C[C@@H]1CCCCO[C@@H](CN(C)Cc2ccncc2)[C@H](C)CN([C@@H](C)CO)C(=O)c2cc(NC(=O)c3ccncc3)ccc2O1 | i | i | i | i |
| Cc1nc(SCC(=O)O)[nH]c(=O)c1Oc1ccccc1 | i | i | i | i |
| O=C(C1=C[C@H](c2coc3ccccc3c2=O)C[C@H](OCc2ccc(CO)cc2)O1)N1CCCCCCC1 | i | i | i | i |
| C[C@@H]1CN([C@@H](C)CO)C(=O)c2cccc(NS(=O)(=O)c3cccs3)c2O[C@@H]1CN(C)S(=O)(=O)c1ccc(Cl)cc1 | i | i | i | i |
| CC(C)(C)[C@H]1C=C(C(N)=O)O[C@@H](OCc2ccc(CO)cc2)C1 | i | i | i | i |
| C[C@@H]1CN([C@@H](C)CO)C(=O)c2cccc(NC(=O)Nc3ccc(F)cc3)c2O[C@H]1CN(C)C | i | i | i | i |
| C[C@@H]1CN([C@@H](C)CO)C(=O)c2cc(NC(=O)c3ccncc3)ccc2O[C@@H](C)CCCCO[C@H]1CN(C)Cc1ccncc1 | i | i | i | i |
| C[C@H](CO)N1C[C@H](C)[C@H](CN(C)S(=O)(=O)c2ccc(C#N)cc2)Oc2ncc(C#Cc3ccc(C(F)(F)F)cc3)cc2C1=O | i | i | i | i |
| O=C(NCc1nc2ccccc2[nH]1)C1=C[C@H](c2ccc(Br)cc2)C[C@H](OCCCCO)O1 | i | i | i | i |
| CC(C)CN1C(=O)[C@@]2(c3ccc([N+](=O)[O-])cc3)CC(=O)N(CC3C4CC5CC(C4)CC3C5)[C@@H]2c2ccc(CO)cc21 (stereo partly specified) | i | i | i | i |

The results go on.
Order of values: ID4 binder	Myc binder	STAT3 SMM	p53 mut binder
- COc1ccc(S(=O)(=O)Nc2ccc3c(c2)C(=O)N([C@H](C)CO)C[C@H](C)[C@@H](CN(C)C)O3)cc1
  i	i	i	i
- O=C(O)CCCNS(=O)(=O)c1ccc(Br)s1
  i	i	i	i
- COc1ccc(S(=O)(=O)Nc2ccc3c(c2)C(=O)N([C@H](C)CO)C[C@H](C)[C@@H](CN(C)S(=O)(=O)c2ccc(OC)cc2)O3)cc1
  i	i	i	i
- Cc1c(Cl)cccc1NC(=O)CN(c1ccccc1)S(C)(=O)=O
  i	i	i	i
- C[C@@H]1CN([C@H](C)CO)C(=O)c2cc(NS(=O)(=O)c3cccs3)ccc2O[C@H]1CN(C)CC1CC1
  i	i	i	i
- C[C@H](CO)N1C[C@H](C)[C@H](CN(C)C(=O)CCC(F)(F)F)OCCCC[C@H](C)Oc2ccc(NS(=O)(=O)c3ccccc3)cc2C1=O
  i	+	i	i
- COC(=O)[C@@]1(C)CC[C@]2(C(=O)O[C@@H]3O[C@H](CO)[C@@H](O)[C@H](O)[C@H]3O)CC[C@]3(C)C(=CCC4[C@@]5(C)C[C@H](O)[C@H](O[C@@H]6OC[C@@H](O)[C@H](O)[C@H]6O)[C@@](C)(CO)C5CC[C@]43C)[C@@H]2C1 (stereo partly specified)
  i	i	i	i
- COc1cc2ccc(=O)oc2c(O[C@@H]2O[C@H](CO)[C@@H](O)[C@H](O)[C@H]2O)c1O
  i	i	i	i
- CC(C)(CO)Cc1cc(C(C)(C)C)c(O)c(C(C)(C)C)c1
  i	i	i	i
- Cc1ccc(S(=O)(=O)N(C)C[C@H]2Oc3ccc(NC(=O)C4CC4)cc3CC(=O)N([C@@H](C)CO)C[C@@H]2C)cc1
  i	i	i	i
- Cc1noc(C)c1S(=O)(=O)N(C)C[C@H]1OCCCC[C@H](C)Oc2ccc(NS(C)(=O)=O)cc2C(=O)N([C@@H](C)CO)C[C@@H]1C
  i	i	i	i
- Cc1noc(C)c1S(=O)(=O)Nc1ccc2c(c1)C(=O)N([C@@H](C)CO)C[C@@H](C)[C@@H](CN(C)C(=O)NC1CCCCC1)O2
  i	i	i	i
- C[C@@H]1CN([C@@H](C)CO)C(=O)c2cc(NC(=O)Nc3ccccc3)ccc2O[C@@H](C)CCCCO[C@H]1CN(C)C(=O)Cc1ccccc1
  i	i	i	i
- C[C@@H]1CN([C@@H](C)CO)C(=O)c2cc(NC(=O)c3ccccc3)ccc2O[C@@H](C)CCCCO[C@H]1CN(C)CC1CCCCC1
  ·	+	i	i
- Cc1cc(C)nc(SCC(=O)Nc2nonc2N)n1
  i	i	i	i
- COc1ccccc1NC(=O)Cn1nnc(-c2cc(OC)c(OC)c(OC)c2)n1
  i	i	i	i
- CCCCCCCCCCC/C=C\C(C)(C)/C=C\CCCC(=O)O
  i	i	i	i
- Cc1noc(C)c1S(=O)(=O)Nc1ccc2c(c1)CC(=O)N([C@@H](C)CO)C[C@H](C)[C@H](CN(C)S(=O)(=O)c1ccccc1)O2
  i	i	i	i
- O=S(=O)(N[C@@H]1CCCN(Cc2ccc(OCCO)cc2)C1)c1ccc(-c2ccccc2)cc1
  i	i	i	i
- CNC[C@H]1Oc2c(NC(=O)c3cnccn3)cccc2C(=O)N([C@@H](C)CO)C[C@H]1C
  i	i	i	i
- CC(C)NC(=O)Nc1ccc2c(c1)C(=O)N([C@H](C)CO)C[C@H](C)[C@H](CN(C)C(=O)Cc1ccccc1)OCCCC[C@@H](C)O2
  i	i	i	i
- COc1ccc(-c2csc(NC(=O)c3cc(-c4ccc(C)o4)nc4ccccc34)c2C#N)cc1OC
  i	i	i	i
- C[C@H](CO)N1C[C@H](C)[C@@H](CN(C)Cc2ccccc2)OCCCC[C@H](C)Oc2ccc(NS(=O)(=O)c3cccs3)cc2C1=O
  i	i	i	i
- C[C@H]1CN([C@@H](C)CO)C(=O)CCCn2nncc2CO[C@H]1CN(C)Cc1ccccc1
  i	i	i	i
- C[C@H](CO)N1C[C@H](C)[C@@H](CN(C)C(=O)Nc2cccc3ccccc23)Oc2ccc(NC(=O)C3CC3)cc2CC1=O
  i	i	i	i
- COc1ccc(CCNc2nc(C)nc3c2sc2nc4c(cc23)COC(C)(C)C4)cc1OC
  i	i	i	i
- C[C@@H]1CN([C@@H](C)CO)C(=O)c2cccc(NC(=O)Nc3ccc(F)cc3)c2O[C@H]1CN(C)Cc1ccc(C(F)(F)F)cc1
  i	i	i	i
- Cc1cc(C)nc(NC(=O)NC(=O)COc2ccc(Cl)cc2Cl)n1
  i	i	i	i
- COc1ccc(CN(C)C[C@@H]2Oc3c(NS(=O)(=O)c4ccc(OC)cc4)cccc3C(=O)N([C@H](C)CO)C[C@H]2C)cc1
  i	i	i	i
- Cc1noc(C)c1NC(=O)N(C)C[C@H]1Oc2ccc(N(C)C)cc2CC(=O)N([C@H](C)CO)C[C@@H]1C
  i	i	i	i
- C[C@H]1CN([C@@H](C)CO)C(=O)c2cc(NS(=O)(=O)c3cn(C)cn3)ccc2O[C@@H]1CN(C)C(=O)NC1CCCCC1
  i	i	i	i
- Cc1noc(C)c1S(=O)(=O)N(C)C[C@H]1Oc2ccc(NS(=O)(=O)c3cn(C)cn3)cc2CC(=O)N([C@H](C)CO)C[C@H]1C
  i	i	i	i
- C[C@@H]1CCCCO[C@H](CN(C)Cc2ccncc2)[C@@H](C)CN([C@H](C)CO)C(=O)c2cc(NS(C)(=O)=O)ccc2O1
  i	i	i	i
- Cc1noc(C)c1S(=O)(=O)Nc1cccc2c1O[C@H](CN(C)Cc1ccccc1)[C@H](C)CN([C@H](C)CO)C2=O
  i	i	i	i
- COC(=O)c1cc(OC)c(OC)cc1NC(=O)c1c(C)noc1C
  i	i	i	i
- Cc1noc(C)c1NC(=O)Nc1cccc2c1O[C@H](CN(C)Cc1ccccc1)[C@@H](C)CN([C@H](C)CO)C2=O
  i	i	i	i
- COc1ccc(S(=O)(=O)N(C)C[C@H]2Oc3ccc(NC(=O)Nc4ccc(C(F)(F)F)cc4)cc3CC(=O)N([C@H](C)CO)C[C@H]2C)cc1
  i	+	i	i
- O=C(O)CC/C=C\CC[C@@H]1[C@@H](N2CCCCC2)[C@@H](O)C[C@@H]1OCc1ccc(-c2ccccc2)cc1
  i	i	i	i
- Cc1ccc2c(C)c(C(=O)Nc3ccc(S(=O)(=O)Nc4ncccn4)cc3)oc2c1
  i	i	i	i
- O=C(CCc1ccc(O)cc1)CC(O)CCc1ccc(O)c(O)c1 (stereo unspecified)
  ·	i	i	i
- C[C@@H]1CN([C@H](C)CO)C(=O)Cc2cc(NC(=O)CCN3CCOCC3)ccc2O[C@@H]1CN(C)C
  i	i	i	i
- NC(=O)CSc1nnc(Cc2ccccc2)n1-c1ccccc1
  i	i	i	i
- N#C/C(=C\c1ccc(O)c(O)c1)C(=O)NCCCNC(=O)/C(C#N)=C/c1ccc(O)c(O)c1
  ·	i	i	i
- Cc1noc(C)c1S(=O)(=O)N(C)C[C@@H]1Oc2ccc(NC(=O)NC(C)C)cc2CC(=O)N([C@H](C)CO)C[C@@H]1C
  i	i	i	i

Part of the list above, field by field.
structure: Cc1noc(C)c1NC(=O)Nc1cccc2c1O[C@H](CN(C)Cc1ccccc1)[C@@H](C)CN([C@H](C)CO)C2=O
  ID4 binder: i
  Myc binder: i
  STAT3 SMM: i
  p53 mut binder: i
structure: COc1ccc(S(=O)(=O)N(C)C[C@H]2Oc3ccc(NC(=O)Nc4ccc(C(F)(F)F)cc4)cc3CC(=O)N([C@H](C)CO)C[C@H]2C)cc1
  ID4 binder: i
  Myc binder: +
  STAT3 SMM: i
  p53 mut binder: i
